# esBAF inh: Bmi1 luciferase reporter increase in mESCs, primary screen, esBAF inhibitor project, mouse ES cells, Bmi1 luciferase knock-in, single point | 24 h; 100% = twice the neutral-well signal | reporter increase, % at 12.5 µM | 350,000 tested, 2% active; in the data active = activation above about 40%;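 note: 0% = median of the plate's neutral control wells and 100% = double that signal; a rise in the Bmi1 reporter signal indicates esBAF inhibition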
# SIRT5 block: SIRT5 desuccinylase inhibitors, primary screen, biochemical, fluorescence imaging, single point, set 5; Purified SirT5, succinyl-peptide AMC, trypsin-coupled fluorescence; inhibition, % at 15 µM; 330,000 tested, 1.1% active; in the data active = inhibition above about 15%
# Casp6 inh: human caspase-6 inhibitors, primary screen, biochemical, VEID-R110 fluorescence, single point, set 2; purified caspase-6, Z-VEID-R110 cleavage fluorescence; inhibition, % at 12.5 µM; AID 686996, 2013; P55212; 350,000 tested, 0.53% active;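 active = mean inhibition across replicates at least about 35%, with every replicate also reaching that limit, limit read from the data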;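 note: 0% = median of neutral control wells and 100% = no fluorescence left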
# S100A4 MyoIIA: inhibitors of S100A4-myosin IIA peptide binding, primary screen, biochemical, fluorescence polarization, TAMRA-MyoIIA peptide; 360,000 tested, 0.14% active; Protein S100-A4 (Homo sapiens), P26447; inhibition, % at 10.7 µM;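 active = mean inhibition of at least 70% across replicates, with every replicate also reaching that level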
# Target sequence (P26447 whole entry, looked up): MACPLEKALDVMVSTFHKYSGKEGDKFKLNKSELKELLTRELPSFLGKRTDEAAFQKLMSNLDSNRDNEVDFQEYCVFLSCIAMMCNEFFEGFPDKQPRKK
#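 Test system – S100A4 monomer (human) · Compound – single-point compound testing · Schedule – 5 min incubation before reading · Probe or stimulus – TAMRA-labelled myosin IIA heavy-chain peptide probe, 5 nM · Benchmarks – neutral control DMSO, positive control TFP · Medium – Calcium-containing HEPES buffer, pH 7.2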
# * marks the source's active call; other numbers are inactive results; . = no result given; & = joins results of further samples.
# Letters: A = esBAF inh; B = SIRT5 block; C = Casp6 inh; D = S100A4 MyoIIA
compound: Cc1ccc(S(=O)(=O)n2c(C)nc3ccccc32)cc1
  A = 9; B = 0; C = 41*; D = -3

compound: COc1cccc(C(=O)Nc2cc3c(cc2N2CCOCC2)n(C)c(=O)n3C)c1
  A = 1; B = 0; C = -3; D = 6

compound: N#Cc1ccc(CNC(=O)N2CCOCC2)cc1
  A = -1; B = -3; C = -2; D = -1

compound: CN[C@@H]1CC[C@H](c2ccc(Cl)c(Cl)c2)c2ccccc21
  A = -8; B = -4; C = -10; D = -4

compound: COc1ccc(-c2ccc3c(c2)C2CC3CCN2C(=O)OCc2ccccc2)cc1 (stereo not drawn)
  A = 7; B = 0; C = 0; D = -3

compound: COCc1cc(C)nc(SCC(=O)c2ccc(O)c(O)c2)c1C#N
  A = 7; B = -2; C = 12; D = -12

compound: CN(C)CCCN1c2ccccc2Sc2ccc(C(F)(F)F)cc21
  A = -4; B = -6; C = .; D = 1&1

compound: Cc1cc(C)c(/C=C2\C(=O)Nc3ccccc32)[nH]1
  A = 4; B = 0; C = -14; D = 6

compound: NC(=O)C1CCN(C(=O)Nc2ccccc2)CC1
  A = 0; B = .; C = .; D = .

compound: O=C(N/N=C/c1ccc(Sc2ccccn2)o1)c1cccc([N+](=O)[O-])c1
  A = 11; B = -1; C = 2; D = -9

compound: c1ccc(-c2ccc(-c3nc(-c4ccccn4)no3)cc2)cc1
  A = -79; B = -4; C = -1; D = 4

compound: NS(=O)(=O)c1ccc(NC(=O)Nc2ccc(Cl)cc2)cc1
  A = .; B = 3; C = -1; D = -2

compound: O=C(C=Cc1cccs1)c1ccccc1
  A = .; B = 15; C = 1; D = -1

compound: Nc1nc(Cl)c(N)c(NCC2(CO)CC(CCc3ccccc3)C2)n1 (stereo not drawn)
  A = .; B = .; C = 1; D = 12

# Records listed above printed as active in Casp6 inh.
# Letters: A = esBAF inh; B = SIRT5 block; C = Casp6 inh; D = S100A4 MyoIIA
compound: Cc1ccc(S(=O)(=O)n2c(C)nc3ccccc32)cc1
  A = 9; B = 0; C = 41*; D = -3

# In the list so far, 5 have a carbonyl joined to an NH by a bond outside any ring:
# Letters: A = esBAF inh; B = SIRT5 block; C = Casp6 inh; D = S100A4 MyoIIA
compound: COc1cccc(C(=O)Nc2cc3c(cc2N2CCOCC2)n(C)c(=O)n3C)c1
  A = 1; B = 0; C = -3; D = 6

compound: N#Cc1ccc(CNC(=O)N2CCOCC2)cc1
  A = -1; B = -3; C = -2; D = -1

compound: NC(=O)C1CCN(C(=O)Nc2ccccc2)CC1
  A = 0; B = .; C = .; D = .

compound: O=C(N/N=C/c1ccc(Sc2ccccn2)o1)c1cccc([N+](=O)[O-])c1
  A = 11; B = -1; C = 2; D = -9

compound: NS(=O)(=O)c1ccc(NC(=O)Nc2ccc(Cl)cc2)cc1
  A = .; B = 3; C = -1; D = -2

# Screening data: PubChem, Broad Institute

# The list is partial, so the mix of outcomes need not match the whole.
